Rango-impB inh: inhibitors of Rango-importin beta complex formation; Potency, µM (series often up to 92.2 µM), for the others: at the highest dose inhibition of complex formation; Rango CFP/YFP FRET sensor + importin beta, 45 min; AID 540263; 0.031% of 340,000 active; Q14974; active = rising FRET ratio curve, often small or poorly fitted; inconclusive = mostly compound fluorescence or quenching in the first reads; inactive = flat curves in all reads;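 further: potency means the concentration at half of the fitted maximal effect; 0% = DMSO wells and 100% = buffer wells lacking importin beta; nearly all actives have a fitted effect of over 15% in size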
Target sequence (Q14974 whole entry, looked up): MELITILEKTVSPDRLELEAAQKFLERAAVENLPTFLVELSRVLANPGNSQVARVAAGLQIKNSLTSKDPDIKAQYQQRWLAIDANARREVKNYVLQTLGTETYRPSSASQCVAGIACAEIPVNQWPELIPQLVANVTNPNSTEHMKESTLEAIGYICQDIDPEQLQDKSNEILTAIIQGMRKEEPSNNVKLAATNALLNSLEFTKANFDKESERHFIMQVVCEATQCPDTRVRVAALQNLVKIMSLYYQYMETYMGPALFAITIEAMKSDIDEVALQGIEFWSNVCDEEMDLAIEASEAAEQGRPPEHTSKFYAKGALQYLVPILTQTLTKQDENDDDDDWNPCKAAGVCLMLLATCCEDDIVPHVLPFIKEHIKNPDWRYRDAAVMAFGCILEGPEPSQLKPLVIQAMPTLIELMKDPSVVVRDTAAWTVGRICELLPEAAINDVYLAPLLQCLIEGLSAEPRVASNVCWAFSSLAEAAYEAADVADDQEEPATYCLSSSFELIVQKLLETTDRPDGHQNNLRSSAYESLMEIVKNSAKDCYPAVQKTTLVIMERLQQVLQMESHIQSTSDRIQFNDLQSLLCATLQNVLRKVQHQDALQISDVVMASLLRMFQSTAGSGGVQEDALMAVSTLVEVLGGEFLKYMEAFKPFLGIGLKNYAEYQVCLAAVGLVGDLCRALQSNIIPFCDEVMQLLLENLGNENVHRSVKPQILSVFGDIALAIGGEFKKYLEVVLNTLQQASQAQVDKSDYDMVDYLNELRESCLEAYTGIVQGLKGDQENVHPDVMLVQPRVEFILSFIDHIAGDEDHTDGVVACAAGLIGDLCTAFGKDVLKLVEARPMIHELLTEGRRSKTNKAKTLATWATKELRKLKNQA
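FRET biosensor (snurportin 1 IBB flanked by EYFP and cerulean), 50 nM, with compound 5 min, then 0.125 microM importin beta in PBS, 1 mM DTT, 0.02% Tween-20, 0.1% BSA. CFP/YFP ratio read after 45 min at room temperature; pre-read flags interference.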
GLA inh pH 4.5: inhibitors of human alpha-galactosidase A at pH 4.5; activity change, negative = inhibition, % at 105 µM; 230,000 tested, under 10 active; purified enzyme, 4-MU-alpha-Gal fluorescence, pH 4.5; P06280; inconclusive = small, poorly fitted or top-dose-only inhibition, or a rising curve; inactive = flat fitted curve, though single readings scatter; no compound was filed as active;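 further: 0% = full activity with enzyme and -100% = basal without enzyme; dose as in the result columns while the protocol names 77 µM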
Rango release inh: inhibitors of RanGTP-induced Rango-importin beta complex dissociation; 0.071% of 340,000 active; Potency, µM (doses to about 46.1 µM), inactives show at the highest dose activity change, negative = inhibition; AID 540253; Biochemical FRET Rango-importin beta, RanGTP-induced dissociation; O95149+P62826; active means falling FRET ratio curve, often poorly fitted, with flat reads before Ran was added; inconclusive means other falling curves, or compound fluorescence or quenching; inactive means flat or rising ratio curve;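 further: potency means the concentration at half of the fitted maximal effect; % of control where 0% means no effect; nearly all actives have a fitted effect of over 45% in size; -100% = wells without RanGTP and RCC1; the record marks most hits as doubtful in a second field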
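Quantitative HTS using a FRET biosensor: 0.1 uM Rango, 0.25 uM importin beta, 0.6 uM Ran, 2 mM GTP, 0.2 uM RCC1 final, PBS with DTT, Tween-20 and BSA. Post-read taken 45 min after Ran addition.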
miR-21 FLuc: raises the signal of a miR-21 reporter; 340,000 tested, under 10 active; HeLa miR-21 FLuc reporter, luciferase, 48 h; Potency, µM (highest dose often 38.3 µM), for the others: at the highest dose reporter change, positive = more light; AID 2288; active = well fitted rising curve with a large enough effect; inconclusive = small, poorly fitted or top-dose-only effect; inactive = no such curve, though single readings can be large or run the other way;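 further: % of control where 0% means no effect; miR-21 action dims this reporter so a rising signal means less miR-21 action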
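HeLa cells stably expressing CMV-driven firefly luciferase with a downstream miR-21 binding sequence, endogenously expressing miR-21, were treated with titrations (up to about 40uM final) for 48 hours at 37 degree Celsius. Luciferase luminescence was read after lysis.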
Starred values were filed as active, the others as inactive; ? = inconclusive; . = not tested or not shown; & = joins results of further samples. An excerpt (hit frequency here may not be typical).

SMILES	Rango-impB inh	GLA inh pH 4.5	Rango release inh	miR-21 FLuc
O=C(O)c1[nH]c2ccccc2c1C(c1cc(Br)ccc1O)c1c(C(=O)O)[nH]c2ccccc12	-1.3%	.	-5%	2%
OCC1(CCc2ccccc2)CCN(Cc2cc(F)ccc2-n2cccn2)CC1	-1.7%	-8	0%	-5%
CC(C)(C)Cc1nnc(NC(=O)c2ccc([N+](=O)[O-])cc2)s1	1.3%	2	-4%	-46%
Cc1ccc(CNC(=O)CCC(=O)n2ncc3cc(C)ccc32)cc1	0.3%	.	-2%	0%
O=C(CCCCCN1C(=O)c2ccccc2C1=O)Nc1nccs1	-1.8%	0	0%	-9%
COc1ccccc1N1CCN(C(CNS(=O)(=O)c2ccccc2)c2cccnc2)CC1 (centres undefined)	4.0%	-8	14%	0%
CC(=O)Nc1ccc(S(=O)(=O)Oc2cccc(/C=C3\SC(N)=NC3=O)c2)cc1	0.0%	3	1%	4%
Cc1ccc(C(C(=O)NC2CCCCC2)N(Cc2ccco2)C(=O)C2COc3ccccc3O2)o1 (centres undefined)	-2.0%	3	-5%	5%
O=C(Cn1nc(Cc2cccnc2)c2ccccc2c1=O)NCC1COc2ccccc2O1 (centres undefined)	0.0%	-3	3%	1%
CCOc1ccc(NC(=O)COC(=O)CCC(=O)c2cccs2)cc1	0.2%	.	2%	.
CCOc1cc(/C=C/c2ccc3cccc([N+](=O)[O-])c3n2)ccc1OCC(=O)N(C)C	0.7%	-1	-3%	-6%
CCOc1ccc(-n2c(N)c(C(=O)NCc3ccco3)c3nc4ccccc4nc32)cc1	?	-1	?	-6%
Cc1nn(Cc2ccccc2Cl)c2sc(C(=O)OC3CCCC3=O)cc12 (centres undefined)	2.1%	-5	3%	-32%
O=C(N1CCOCC1)N1CCN(S(=O)(=O)c2ccc(Cl)cc2)CC1	-4.0%	.	-11%	0%
COC(=O)CN1C(=O)C(O)(CC(=O)c2ccc(C)cc2)c2ccccc21 (centres undefined)	1.1%	4	3%	-7%
Cc1cccc(C)c1NC(=O)CN1CCN(C(=O)c2ccc(OCc3cn4ccccc4n3)cc2)CC1	?	.	8%	.
CC1(C)CC(=NOC(=O)c2ccccc2)CC(C)(C)N1	3.4%	.	46%	-3%
CN1C(C(=O)c2ccccc2)=C(N)c2ccccc2S1(=O)=O	-1.3%	-2	-1%	2%
O=C(NCc1ccc(Cl)cc1Cl)c1ccc2nc[nH]c2c1	-5.1%	3	-17%	-9%
CN(C)CC(=O)Nc1nc(-c2ccccc2)cs1	-1.4%	-10	-18%	-24%
N=C1C(c2nc3ccccc3[nH]2)=C(O)CN1C1CCCCC1	4.1%	-2	26%	-52%
O=C(CCCOc1ccc(Cl)cc1Cl)Nc1ccccc1C(=O)O	-4.7%	-3	0%	3%
O=C(Nc1c2c(nn1-c1cccc(Cl)c1)CS(=O)(=O)C2)C1CC1	2.2%	.	30%	-2%
CN(C)CCCOc1ccc2c(c1)Sc1ccccc1CC2=O	1.4%	4	0%	-5%
CCOC(=O)C1CCc2sc(N)c(C#N)c21 (centres undefined)	0.2%	-1	3%	3%
COc1ccccc1NC(=O)COc1ccc(C(=O)NC2CCCc3ccccc32)cc1OC (centres undefined)	-2.3%	2	3%	3%
CC(C)=CCC/C(C)=C/CC/C(C)=C/COc1ccc2ccc(=O)oc2c1	?	.	-22%	.
CSCCC(NC(=O)C1CC1)c1nc2ccccc2[nH]1 (centres undefined)	4.7%	-4	-3%	-1%
CCNC(=O)c1ccc2c(c1)C1C3CCC(C3)C1C(c1ccccc1)N2 (centres undefined)	4.5%	-17	-12%	4%
Cc1ccc(C)c(SCC(=O)Nc2cccnc2Cl)c1	0.2%	-23	-1%	-13%

5 successive entries out of the list so far, quoted:
SMILES	Rango-impB inh	GLA inh pH 4.5	Rango release inh	miR-21 FLuc
O=C(O)c1[nH]c2ccccc2c1C(c1cc(Br)ccc1O)c1c(C(=O)O)[nH]c2ccccc12	-1.3%	.	-5%	2%
OCC1(CCc2ccccc2)CCN(Cc2cc(F)ccc2-n2cccn2)CC1	-1.7%	-8	0%	-5%
CC(C)(C)Cc1nnc(NC(=O)c2ccc([N+](=O)[O-])cc2)s1	1.3%	2	-4%	-46%
Cc1ccc(CNC(=O)CCC(=O)n2ncc3cc(C)ccc32)cc1	0.3%	.	-2%	0%
O=C(CCCCCN1C(=O)c2ccccc2C1=O)Nc1nccs1	-1.8%	0	0%	-9%

The listing continues.
SMILES	Rango-impB inh	GLA inh pH 4.5	Rango release inh	miR-21 FLuc
Cc1cc(C)nc(-n2cc(C(=O)c3cc(F)ccc3O)cn2)n1	-1.2%	-1	5%	-3%
CCN1CCC[C@H]1CNC(=O)c1cc(S(N)(=O)=O)ccc1OC	.	-5&2&1&0	.	-3%
COC(=O)CSc1nnc(-c2cccc(NC(=O)c3ccc(C)cc3)c2)n1C	2.8%	3	-6%	3%
Cc1ccc(C)c(Nc2c([N+](=O)[O-])ccc3nonc23)c1	1.4%	.	-5%	-18%
CC(=O)CC1(C)OC(N)=C(C#N)C1(C#N)C#N (centres undefined)	0.0%	-1	-9%	-5%
COc1ccc(OC)c(N(CC(=O)NCCSCc2ccco2)S(=O)(=O)c2ccc(OC)c(OC)c2)c1	1.3%	.	2%	4%
CN1CCN(S(=O)(=O)c2cccc(C(=O)Nc3cc(C(N)=O)cc(C(N)=O)c3)c2)CC1	-1.6%	.	-6%	-1%
CCN1CC(C)C(O)(c2ccccc2)CC1C (centres undefined)	?	0	-16%	0%
Cc1ccc(-n2c(-c3ccco3)nc3nc4ccccc4nc32)cc1	-1.4%	0	?	-8%
COc1ccc(/C=C2\SC(=O)N(CCNC(=O)Cn3[nH]c(=O)c4ccccc4c3=O)C2=O)cc1	1.5%	.	0%	.
O=S(=O)(c1cnc(Cl)c(Br)c1)N1CCCCCC1	-2.5%	0	-4%	-5%
c1ccc2c(c1)OC(CCCN1CCCCC1)c1ccccc1S2 (centres undefined)	?	-1	?	-10%
CC(=O)Nc1cccc(NC(=O)CSc2nnnn2-c2ccc3c(c2)OCO3)c1	.	2	.	0%
Cc1ccc2c(c1)N(CC(=O)N1CCCC1)C(=O)C(C)O2 (centres undefined)	-0.3%	.	3%	-4%
COc1cc(C2Nc3ccccc3NC3=C2C(=O)CC(C)(C)C3)cc(OC)c1OC(C)=O (centres undefined)	-3.8%	.	5%	-7%

Part of the list above, reformatted:
Rango-impB inh | GLA inh pH 4.5 | Rango release inh | miR-21 FLuc | structure
1.3% | . | 2% | 4% | COc1ccc(OC)c(N(CC(=O)NCCSCc2ccco2)S(=O)(=O)c2ccc(OC)c(OC)c2)c1
-1.6% | . | -6% | -1% | CN1CCN(S(=O)(=O)c2cccc(C(=O)Nc3cc(C(N)=O)cc(C(N)=O)c3)c2)CC1

(listing goes on)
SMILES	Rango-impB inh	GLA inh pH 4.5	Rango release inh	miR-21 FLuc
CNc1nc(-c2cccs2)cc(C(F)(F)F)c1C#N	?	13	?	1%
CCN(CC)c1ccc(C(=O)OCC(=O)Nc2ncccn2)cc1	-0.1%	.	14%	.
CCCC(CCC)C(=O)NC1CCN(Cc2ccccc2)CC1	2.2%	8	6%	-5%
CC(C)C(=O)N=c1sc2cccc(F)c2n1C	-3.0%	-7	-11%	-22%
O=C(COc1ccc(Br)cc1)NN1C(=O)c2ccccc2C1=O	0.7%	.	5%	.
CCn1c(SCC(=O)Nc2ccc(N(C)C)cc2)nnc1-c1cccc(C)c1	-1.8%	-6	?	-9%
Cc1cccc(C)c1OCc1nnc(SCC(=O)Nc2nccs2)o1	-3.4%	4	12%	-2%
CCCC(c1nnnn1Cc1cccs1)N1CCN(C)CC1 (centres undefined)	0.8%	7	4%	3%
Cc1cc(C(=O)N/N=C2\CC(=O)c3ccccc32)c(C)n1-c1ccc(F)cc1	-3.2%	0	17%	-22%
COc1ccc(C(=O)COC(=O)CCC(=O)c2cccs2)cc1	13%	0	-1%	2%
C=CCOc1cccc(C2C(C(=O)c3ccc(C)o3)=C(O)C(=O)N2Cc2ccncc2)c1 (centres undefined)	-4.5%	0	-2%	-3%
CCn1c(SCC(=O)c2ccccc2)nc2ccccc2c1=O	-0.8%	6	-1%	-10%
Fc1cc2[nH]c(=S)[nH]c2cc1Cl	1.6%	-9	12%	-3%
CCOc1ccc(C(c2c(NC(=O)c3ccco3)sc(C)c2C)N2CCOCC2)cc1 (centres undefined)	-0.3%	.	-15%	.
COc1ccccc1C(=O)NNC(=O)C1CCCO1 (centres undefined)	2.2%	.	2%	0%
Cc1ccc([C@@H]2[C@@H]3C(=O)N(c4ccccc4)C(=O)[C@@H]3[C@]3(C)C(=O)N(Cc4ccc(-c5ccccc5)cc4)CC(=O)N23)o1	4.5%	.	17%	0%
COC(=O)[C@@H]1C[C@@]2(O)[C@H](O)[C@H](O)[C@H](O)C[C@H]2N1Cc1cc(F)ccc1F	-1.6%	-17&2	-5%	1%
Cc1cc(C)c(NC(=S)N2CCCC2C(=O)O)c(C)c1 (centres undefined)	-2.3%	0	12%	2%
Cc1nnc(SCC(=O)Nc2ccc(O)cc2)c2ccccc12	-0.2%	.	-7%	-4%
CNC(=S)NNC(=O)c1sccc1OCc1cccc(C(F)(F)F)c1	1.9%	-11	1%	-17%
C#CCOCCOCCOCCNc1nc(N2CCN(C(=O)[C@H]([C@@H](C)CC)n3cc([C@@H](N)CO)nn3)CC2)nc(N2CCN(C(=O)[C@H]([C@@H](C)CC)n3cc([C@@H](N)CO)nn3)CC2)n1	.	4	.	0%
O=C(NCc1ccco1)C1CCCN1C(=O)NCc1ccccc1 (centres undefined)	-2.4%	-5	-9%	0%
CCn1c(=O)n(CC)c2cc(N3CCCC3)c(NC(=O)c3cccc(C)c3)cc21	-2.9%	.	-15%	6%
Cc1c(C(=O)N2CCN(Cc3ccc4c(c3)OCO4)CC2)sc2ncnc(N3CCN(c4ccccc4F)CC3)c12	3.8%	.	1%	16%
COc1ccc(C(C)=O)cc1CSc1nnc(-c2ccccc2O)n1-c1ccccc1	-3.4%	-1	8%	16%
Cc1cc2c(C)nc3ccccc3c2o1	1.2%	-5	6%	-2%
CCN1CCN(c2oc(/C=C/c3ccccc3)nc2C#N)CC1	-0.9%	?	-15%	-43%
COc1ccccc1C1CC(c2ccccc2)Nc2ncnn21 (centres undefined)	-2.9%	-5	-17%	19%
CCOc1ccc(CCNC(=O)CCS(=O)(=O)c2ccc(Br)cc2)cc1OCC	-1.2%	.	2%	-3%
N#Cc1cccc(NC(=O)CNc2cccc(S(=O)(=O)N3CCCCC3)c2)c1	-6.4%	.	10%	.
CCn1cc(C(=O)O)c(=O)c2cc3c(cc21)OCO3	.	6&3&5&4	.	0%
CC(=O)c1cccc(NC(=O)CN2C(=S)NC(C)(C)CC2C)c1 (centres undefined)	0.2%	-1	21%	-1%
O=C(Nc1ccc(S(=O)(=O)N2CCc3ccccc32)cc1)C(F)(F)F	0.3%	.	14%	1%
S=c1nc(-c2csc3c2CCCC3)[nH][nH]1	0.4%	-7	-3%	0%
O=S(=O)(Cc1ccccc1)Nc1ccc(Br)cn1	-1.4%	-19	-10%	-2%
CC(C)C[C@@H](CN)NC(=O)c1nc[nH]c1C(=O)N[C@@H](C)C(=O)CNC[C@H](CC(C)C)NC(=O)c1nc[nH]c1C(=O)N[C@@H](CC(=O)O)C(=O)O	4.4%	.	-3%	.
CN(C)S(=O)(=O)c1ccc(N2CCCC2)c(C(=O)Nc2ccccc2N2CCOCC2)c1	-1.8%	0	-13%	-10%
O=C(CC1C(=O)NCCN1Cc1cccc(F)c1)NC1CCCCCC1 (centres undefined)	?	.	-5%	-4%
CCN(CCCNC(=O)CCCN1C(=O)COc2ccc(C)cc21)c1cccc(C)c1	0.8%	-5	4%	9%
OCCN(CCO)c1nc(-c2ccccc2)nc2c1oc1ccccc12	6.2%	4	-19%	0%
CCC(C(=O)NC1CC1)n1nc(C)c2c(C)n(-c3ccccc3)nc2c1=O (centres undefined)	-3.1%	.	-2%	-2%
Cn1c(C(=O)N2CCCC(C(=O)NCc3cccs3)C2)cc2sccc21 (centres undefined)	3.9%	17	-5%	3%
COc1ccccc1OCC(=O)Nc1ccc(N2CCCCC2)cc1	-0.8%	4	1%	-22%
